Vif A3G = inhibitors of Vif binding to APOBEC3G peptide, primary screen, biochemical, TR-FRET, GST-Vif 1-94, biotin-A3G peptide, dose response retest (AID 1117319); Virion infectivity factor (Human immunodeficiency virus type 1 group M subtype B (isolate …; 260,000 tested, 0.57% active; inhibition, %, or IC50 in µM where a hit was titrated; TR-FRET GST-Vif / biotin-A3G peptide binding; higher % means a stronger effect; test concentration not given here; strong numbers were not always called active;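 active = above the screen mean plus three standard deviations and confirmed in dose response; inconclusive = results disagree or hit not tested in dose response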;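 note: Vif residues 1-94 fused to GST binding biotinylated APOBEC3G peptide 110-148; 0% = full assay without inhibitor and 100% = GST in place of GST-Vif; retest series ran down from 100 µM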
ALR H2O2 inh = inhibitors of human ALR sulfhydryl oxidase, primary screen, biochemical, H2O2 detection, HRP-luminol luminescence, single point; inhibition, % (test concentration not listed); purified ALR, DTT oxidation; 290,000 tested, 3.8% active;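 active = mean and each replicate at 75% or more; inconclusive = only one of the two met; inactive = neither met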;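 note: stock transfer was 7.5 nL into about 7.5 µL; 0% = neutral wells and 100% = wells with inactivated enzyme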
Target sequence (P55789 whole entry, looked up): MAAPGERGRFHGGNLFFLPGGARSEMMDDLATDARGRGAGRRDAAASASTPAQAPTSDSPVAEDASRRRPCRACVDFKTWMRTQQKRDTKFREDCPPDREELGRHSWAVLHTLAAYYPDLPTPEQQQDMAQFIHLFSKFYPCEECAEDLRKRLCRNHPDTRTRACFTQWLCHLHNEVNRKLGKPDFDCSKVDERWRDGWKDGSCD
HNF4A DNA FP = change in binding of human HNF4A to DNA, primary screen, biochemical, fluorescence polarization, FITC-DNA; 1 h; activity change, % at 10 µM; 360,000 tested, 0.3% active; in the data active = activity change above about 30%, passing the limit was not always enough;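 note: controls were the assay level and a saturating level of protein; the project sought stronger binding though the title names inhibitors; some compounds called inactive have numbers as strong as hits; positive values seem to mean higher polarization but the record does not say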
FGF22 binding = binders of human FGF22 protein, primary screen, FGF22 synaptogenesis inhibitor project, biophysical, thermal shift, single point. Fibroblast growth factor 22 (Homo sapiens), Q9HCT0. recombinant FGF22 thermal shift, SYPRO orange fluorescence; percent of sucrose octasulfate shift, DMSO zero. calls only at 9.99 µM. 340,000 tested, 1.5% active. AID 651658, 2012;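 active = melting point raised past a set limit in the mean and every replicate; inconclusive = no clear call; three in four hits are not shown here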
Target sequence (Q9HCT0 whole entry, looked up): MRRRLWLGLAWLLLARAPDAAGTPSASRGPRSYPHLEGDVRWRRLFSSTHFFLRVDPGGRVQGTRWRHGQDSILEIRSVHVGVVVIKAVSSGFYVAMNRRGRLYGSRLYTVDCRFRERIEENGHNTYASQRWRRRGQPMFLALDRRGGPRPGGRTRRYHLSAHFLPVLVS
MLL AF4-AF9 inh = inhibitors of AF4 peptide binding to AF9, primary screen, biochemical, AlphaScreen, biotin-AF4 peptide, FLAG-AF9, single point; inhibition, % at 10 µM; 350,000 tested, 0.47% active; Protein AF-9 (Homo sapiens), P42568;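 active = every replicate reaching a set inhibition limit, whatever the replicate mean, cut at about 25% in these data; inconclusive = mean inhibition reaches that limit but some replicates miss it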;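 note: 0% = plate neutral control median and 100% = total signal loss; the record names both 10 and 1 µM as test concentration; the first replicate is given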
Target sequence (P42568 whole entry, looked up): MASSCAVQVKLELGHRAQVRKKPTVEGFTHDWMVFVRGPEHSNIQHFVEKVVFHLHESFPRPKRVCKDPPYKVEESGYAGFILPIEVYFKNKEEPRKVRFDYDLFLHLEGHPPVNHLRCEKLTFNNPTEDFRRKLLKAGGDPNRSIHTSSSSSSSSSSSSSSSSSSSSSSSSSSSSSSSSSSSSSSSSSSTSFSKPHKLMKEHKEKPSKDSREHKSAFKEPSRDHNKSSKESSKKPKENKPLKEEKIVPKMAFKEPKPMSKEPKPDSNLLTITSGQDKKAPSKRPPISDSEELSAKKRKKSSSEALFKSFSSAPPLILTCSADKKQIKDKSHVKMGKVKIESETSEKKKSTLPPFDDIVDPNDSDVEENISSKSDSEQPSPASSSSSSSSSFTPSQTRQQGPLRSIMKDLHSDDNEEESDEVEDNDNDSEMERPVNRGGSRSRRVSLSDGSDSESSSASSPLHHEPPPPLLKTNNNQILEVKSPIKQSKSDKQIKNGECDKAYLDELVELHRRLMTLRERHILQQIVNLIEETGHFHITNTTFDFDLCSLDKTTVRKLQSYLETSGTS
Ecoli growth = E. coli growth inhibition, primary screen, OD600; 330,000 tested, 0.21% active; Escherichia coli growth, 23 h; active compounds read low; OD600 absorbance (concentration not given with the values);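 active = OD600 absorbance below the run mean of sample wells minus 3.6 SD, in any replicate, cut at about 0.56 in these data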;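 note: stock transfer was 300 nL into about 60 µL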
rRNA inh HTS = reduced GFP signal of wild-type E. coli, primary screen, bacterial rRNA inhibitor project, GFP/RFP fluorescence, OD600, single point. E. coli WT GFP vs humanized-ribosome RFP mutants, 24 h; active compounds read low; DMSO median 0, no signal -100. GFP signal change (wild-type ribosome), % (concentration not given with the values). 350,000 tested, 1.6% active;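 active = significant combined selectivity score with lowered wild-type GFP, culture density cut under 30%, mutant RFP and density less affected; inactive = any of these conditions unmet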; note: one replicate is shown; some compounds called inactive have numbers as strong as hits
rRNA inh HTS OD600 = further read-out of rRNA inh HTS, marked with its call; OD600 change, %; measured here: OD600 growth;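 optical density of the mix in the first replicate; 0 = DMSO median and -100 = no signal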
rRNA inh HTS RFP = recorded beside rRNA inh HTS, whose call it bears; RFP signal change, %; measured here: RFP humanized mutant strains;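 first replicate; 0 = DMSO median and -100 = no signal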
Starred values were filed as active, the others as inactive; i = inactive; ? = inconclusive; . = no result given; ! = repeats disagree. Only part of the results is shown; rates above refer to the full screens.

Every second line gives: Ecoli growth, MLL AF4-AF9 inh, rRNA inh HTS, FGF22 binding, Vif A3G, rRNA inh HTS RFP, rRNA inh HTS OD600, ALR H2O2 inh, HNF4A DNA FP
O=C(CN1CCN(S(=O)(=O)c2ccc(Cl)cc2)CC1)Nc1ccc2c(c1)OCO2
  0.74, ., ., ., -1%, ., ., -20, -3.2
Cc1cc(O)c2c(C)c(CC(=O)N3CCN(C(=O)C4COc5ccccc5O4)CC3)c(=O)oc2c1 (centres undefined)
  0.66, -1.4, -9, i, 3%, 6.6, -7, 12, 0.0
CCCCc1ccc(NC(=O)CN2NS(=O)(=O)c3ccccc3C2=O)cc1
  0.74, ., ., ., 0%, ., ., 10, 0.7
Cc1c(-n2cccc2C=O)cccc1[N+](=O)[O-]
  0.66, 1.5, 12, i, -16%, -1.5, -1, 4, -0.1
COc1cccc(C(=O)Nc2cccc3c2ccc2cccn23)c1
  0.71, -1.9, -5, i, 14%, 2.5, -6, 32, 8.2
CCCOc1ccc(C(F)(F)F)cc1NS(=O)(=O)c1ccc(Cl)nc1
  0.68, -1.5, 2, i, 4%, 2.5, -13, ., -1.1
CCOc1cc(/C=N/Nc2nnc(C)n2N)ccc1O
  ., -1.0, -10, i, -1%, -8.8, -2, 99*, 4.6
COc1ccc(NC(=O)c2ccc3snnc3c2)cc1
  0.74, ., ., ., 1%, ., ., -6, 4.6
CC(=O)N1CC(=O)N(c2ccccc2)C1=O
  0.67, 0.5, 10, i, ., -0.6, 8, -3, 3.1
Cc1cc2nnc(SCc3ccccc3)n2c(N)n1
  0.73, ., ., ., 15%, ., ., 0, 1.1
CCCNC(=O)CN(C)S(=O)(=O)c1ccc(F)cc1
  0.72, ., ., ., ., ., ., -2, 1.1
CCCN(C)C[C@H]1Oc2cc(-c3ccccc3OC)ccc2S(=O)(=O)N([C@H](C)CO)C[C@H]1C
  ., 3.6, 2, i, ., 0.5, -6, ., .
C[C@H]1CN([C@@H](C)CO)C(=O)c2cc(-c3cccnc3)cnc2O[C@H]1CN(C)C(=O)Nc1ccccc1
  ., -2.8, 1, i, ., -4.6, 0, ., .
Cc1cc2c(cc1S(=O)(=O)N1CCN(c3ccc(Cl)cc3)CC1)OCCN2C
  0.77, 15, -4, i, ., 0.8, -8, -13, 7.3
COc1cc2c(c(OC)c1OC)-c1c(cc3c(c1OC)OCO3)C[C@H](C)[C@@](C)(O)C2
  ., -0.7, -13, i, 6%, 2.9, -21, ., 2.2
COCCCNC(=O)CSc1nc2ccccc2c(=O)n1CCC(=O)NCCc1ccc(OC)c(OC)c1
  0.69, 0.5, 1, i, ., 0.5, 4, 13, 0.0
Cc1ccc(NC(=O)c2oc3ccc(S(=O)(=O)N4CCOCC4)cc3c2C)c(C)c1
  0.65, -1.9, 24, ., -12%, -0.2, 16, -5, 0.0
CNC[C@@H]1OCCCC[C@H](C)Oc2ccc(NC(=O)CCC(F)(F)F)cc2C(=O)N([C@H](C)CO)C[C@H]1C
  ., 0.9, 10, i, ., -1.3, 7, ., .
CC(C(=O)N1CCN=C1c1ccccc1)N1C(=O)c2ccccc2C1=O (centres undefined)
  0.63, -1.1, 16, i, -3%, 4.2, 6, -15, 0.6
CCOC(=O)C1CCCN(C(=O)c2cncc(Br)c2)C1 (centres undefined)
  0.72, ., ., ., -5%, ., ., 1, -2.9
Cc1cc(NS(=O)(=O)c2ccc(NC(=O)c3c(F)c(F)c(F)c(F)c3F)cc2)nc(C)n1
  0.61, -1.4, 1, i, ., 2.7, 2, 0, -0.9
COc1ccc(C)cc1C(=O)CCC(=O)N1CCN(c2ccccc2F)CC1
  0.68, -3.2, -6, i, -3%, 0.7, -9, ., 9.9
C[C@H](CO)N1C[C@H](C)[C@@H](CN(C)C)Oc2ccc(NC(=O)C3CC3)cc2CC1=O
  ., -1.6, 0, i, ., 0.9, 8, ., .
Cn1cc(CN2CCCCC2CO)c(-c2ccc(Oc3ccccc3)cc2)n1 (centres undefined)
  0.7, 3.3, 4, i, 1%, 0.2, -1, -5, -3.7
CC(=O)N(C)C[C@@H]1Oc2cc(/C=C/c3ccccc3)ccc2S(=O)(=O)N([C@H](C)CO)C[C@H]1C
  ., 8.2, -11, i, ., -5.3, -29, ., .
COc1cc(CNCc2cccc(OC)c2OC)cc(OC)c1
  0.67, 4.7, 19, i, ., 2.6, 14, -10, 2.6
Cc1ccc(C)c2[nH]c(=O)c(CN(Cc3ccc4c(c3)OCO4)Cc3nnnn3Cc3ccco3)cc12
  0.74, ., ., ., 12µM*!, ., ., -10, 6.6
CNC(C)C#Cc1ccc2oc3cc(C)c(C)cc3c(=O)c2c1 (centres undefined)
  ., 4.9, -11, i, ., -4.4, -8, 12, 6.4
COc1ccc(/C(C)=C2\SC(=S)N(CCC(=O)O)C2=O)cc1
  0.71, ., ., ., 2%, ., ., 49, -2.8
CC1(c2nnnn2-c2ccc3c(c2)OCCO3)CCC(=O)N1CCc1ccccc1F (centres undefined)
  ., -4.8, -5, i, ., 2.0, 0, ., 2.8
NS(=O)(=O)c1ccc(CCNC(=O)/C=C/c2ccc([N+](=O)[O-])cc2)cc1
  0.69, 0.6, -18*, ., ., 0.2*, -2.8*, 10, 0.9
Cc1nc2ccccn2c1C(=O)CSc1ccc(Cl)cc1Cl
  0.69, ., ., ., 22%, ., ., 2, -0.4
O=C(O)Cn1ccc2cc(S(=O)(=O)N3CCCCCC3)ccc21
  0.69, -1.5, 7, i, -6%, 0.1, 9, 1, -1.8
COc1cc(OC)cc(C(=O)NNC(=O)C2CCC2)c1
  ., -2.3, 18, i, -4%, -0.7, 21, ., 0.1
CCOC(=O)c1sc(N)c(C#N)c1COC(=O)CNC(=O)c1cc(OC)c(OC)c(OC)c1
  0.67, ., ., ., 4%, ., ., ., 99*
Cc1onc(-c2ccccc2Cl)c1C(=O)NCc1nc(-c2ccccc2)no1
  0.73, ., ., ., 1%, ., ., 1, 2.2
COc1ccc(S(=O)(=O)Nc2ccc3c(c2)C(=O)N([C@H](C)CO)C[C@@H](C)[C@H](CN(C)S(=O)(=O)c2cn(C)cn2)OCCCC[C@@H](C)O3)cc1
  ., -1.2, -1, i, ., 0.0, 2, ., .
CCC(=O)N1CCN(CCN=CC2=C(O)CC(C)(C)CC2=O)CC1
  0.67, ., ., ., ?, ., ., -12, 4.7
CN(C)CC(=O)Nc1ccc2c(c1)[C@H]1C[C@H](CC(=O)NCCN3CCCCC3)O[C@@H](CO)[C@H]1O2
  ., 1.8, 0, i, ., -0.5, 4, ., .
CCOC(=O)N1CCN(C(=O)C2c3cc(OC)c(OC)cc3C(=O)N3CCc4ccccc4C23)CC1 (centres undefined)
  0.73, ., ., ., 3%, ., ., -4, -2.8
O=C(C[C@@H]1CC[C@@H](NC(=O)C2CC2)[C@@H](CO)O1)Nc1ccccc1
  ., -1.5, 2, i, ., -0.6, 7, ., .
Cc1nn(C)c(Cl)c1CN1CCCC(CO)(Cc2cccc(Cl)c2)C1 (centres undefined)
  0.71, 0.5, -5, ., ., -0.4, -7, 2, 2.7
CCCCC1CC(C)(C(=O)CSc2nc3ccccc3s2)OC1=O (centres undefined)
  0.71, ., ., ., -1%, ., ., 19, -3.0
COc1ccc2c3c(n(C)c2c1)[C@H](CO)N(S(C)(=O)=O)CC31CCN(Cc2nccs2)CC1
  ., -3.7, 1, i, ., 0.4, -8, ., .
CCC(CO)Oc1cc(NC(=O)c2ccccc2)c2ncn(C(C)C)c2c1 (centres undefined)
  0.64, 3.3, -12, i, ., 4.7, -2, -38, 4.3
CCN(CC)CCn1c2c(c(SCC(=O)Nc3ccc(C)c(F)c3)nc1=O)CCC2
  0.62, -7.6, 3, i, 0%, 0.5, 9, -404, 1.7
COc1ccc(CNCC(O)COCc2cccs2)cc1 (centres undefined)
  0.71, ., ., ., 15%, ., ., -9, -7.5
O=C(NCCN1CCN(c2ccccc2)CC1)C1CCN(S(=O)(=O)c2cccc3nonc23)CC1
  0.75, ., ., ., 43µM*, ., ., 6, 4.2
CCCC(=O)N1CC2(C1)CN(C(C)=O)[C@H](CO)c1c2c2ccc(OC)cc2n1C
  ., -3.5, 3, i, ., -1.5, -1, ., .
Cc1cn(COC/C=C/c2ccccc2)c(=O)[nH]c1=O
  0.66, -0.3, 5, i, -2%, 0.6, 7, -7, -4.5
COC(=O)C1=C(C)NC(=S)NC1c1ccc(-c2cc(Cl)ccc2Cl)o1 (centres undefined)
  0.65, -4.9, 3, i, -2%, 7.7, -9, -2, 4.1
Cc1cc(C)c2c(n1)sc1c(O)cc(=O)[nH]c12
  0.67, ., ., ., 3%, ., ., -4, -3.0
O=C(C1CCCCC1)N1C[C@H](n2cc(C3CC3)nn2)[C@@H](O)C[C@@H]1c1ccc(Cl)cc1
  ., 0.7, 4, i, -2%, -0.3, 2, ., -6.3
CCCOc1c(Br)cc(C2C3=C(CCCC3=O)N(C)C3=C2C(=O)CCC3)cc1OC
  0.73, -8.9, -17, i, 3%, 1.5, -13, -50, -5.1
CCOC(=O)c1c(C)oc2ccc(OS(C)(=O)=O)cc12
  0.69, -3.2, -20, i, ., -6.7, -36, ., 1.7
CCCN(C(=O)COC(=O)COc1c(C)cccc1C)c1c(N)n(Cc2ccccc2)c(=O)[nH]c1=O
  0.7, -1.4, 8, ., -7%, 0.3, 12, ., 1.4
Cc1sc(NC(=O)/C=C/c2ccc(C(C)C)cc2)c(C#N)c1C
  0.7, ., ., ., 8%, ., ., 1, 1.5
CC(=O)c1ccccc1NS(=O)(=O)c1ccc2c(c1)CC(=O)N2
  0.65, 0.3, -2, i, 4%, 2.3, 3, 2, 2.1
COc1ccccc1C(=O)C1CCCN(C(=O)CCc2ccccn2)C1 (centres undefined)
  0.7, ., ., ., -3%, ., ., -20, 0.3
CC(=O)C[C@@H](O)CC(=O)[C@H]1OC(=O)CC/C=C\Cc2ccccc21
  ., -0.4, -3, i, ., 0.9, -2, 1, 8.5
O=C(NCc1ccco1)c1cc(S(=O)(=O)N2CCOCC2)ccc1Br
  0.7, 1.3, 2, i, ., -0.6, 5, 2, 2.7
CC(C)[C@H](NC(N)=O)C(=O)NCCc1ccc(Cl)cc1Cl
  0.67, -0.8, -3, ., ., -3.7, -7, 6, 5.6

3 compounds out of the list above, ordered by their value in rRNA inh HTS, falling:
SMILES | MLL AF4-AF9 inh | rRNA inh HTS | Vif A3G | rRNA inh HTS RFP | rRNA inh HTS OD600 | ALR H2O2 inh | HNF4A DNA FP
CCCN(C(=O)COC(=O)COc1c(C)cccc1C)c1c(N)n(Cc2ccccc2)c(=O)[nH]c1=O | -1.4 | 8 | -7% | 0.3 | 12 | . | 1.4
Cc1cn(COC/C=C/c2ccccc2)c(=O)[nH]c1=O | -0.3 | 5 | -2% | 0.6 | 7 | -7 | -4.5
CCN(CC)CCn1c2c(c(SCC(=O)Nc3ccc(C)c(F)c3)nc1=O)CCC2 | -7.6 | 3 | 0% | 0.5 | 9 | -404 | 1.7
